HCMV UL50-53 inh: inhibitors of HCMV UL50-UL53 nuclear egress complex interaction. hit rate 0.15% among 190,000. AID 1918969. inhibition, % (test concentration not listed). HTRF UL50-UL53 interaction, normalized percent inhibition;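 active = both replicates at 50% or more, plus weaker picks with an unusually low signal ratio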;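 also: stock transfer was 100 nL into about 20 µL; 0% = negative control wells and 100% = wells with untagged competitor protein; inactives centre near -12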
Sa growth 42C: inhibitors of Staphylococcus aureus growth at 42 °C; relative growth, % (test concentration not listed); S. aureus RN4220 growth, OD600, 20 h; hits give low values; hit rate 0.53% among 170,000; AID 720641;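 active = growth at 42 °C up to 50% and 20 or more points under that at 30 °C, or under 10% at both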;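 also: 300 nL library stock went into each well; scaled to the means of positive and negative controls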
GIV Gai3 FP: inhibitors of GIV GBA-motif binding to rat Galpha-i3; P08753; Galpha-i3/FITC-GIV peptide fluorescence polarization, 90 min; hits give low values; scaled: aluminum fluoride 0%, vehicle 100%; hit rate 0.42% among 210,000; percent of control (FP), % (concentration not given with the values);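 active = replicate mean at 85% of control or lower, very high polarization wells dropped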;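 also: wells of about 15 µL received 100 nL stock; the first replicate is given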
Target sequence (P08753 whole entry, looked up): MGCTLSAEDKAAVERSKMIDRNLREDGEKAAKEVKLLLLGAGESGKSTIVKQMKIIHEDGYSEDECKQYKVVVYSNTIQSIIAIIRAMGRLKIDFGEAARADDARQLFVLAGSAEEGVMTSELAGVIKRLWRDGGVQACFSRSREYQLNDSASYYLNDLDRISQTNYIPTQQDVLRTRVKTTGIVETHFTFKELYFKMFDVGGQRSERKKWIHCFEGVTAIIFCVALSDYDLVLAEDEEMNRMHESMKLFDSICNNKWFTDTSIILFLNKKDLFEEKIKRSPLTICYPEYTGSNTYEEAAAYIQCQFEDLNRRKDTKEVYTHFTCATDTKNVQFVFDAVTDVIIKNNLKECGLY
Sa growth 42C second temp: further read-out of Sa growth 42C, marked with its call; relative growth, %; measured here: growth at 30 °C;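 optical density after 20 h as mean of two plates; 100% = untreated growth and lower means inhibition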
An asterisk follows results filed as active; . = not tested or not shown; & = joins results of further samples.

SMILES	HCMV UL50-53 inh	Sa growth 42C	Sa growth 42C second temp	GIV Gai3 FP
Cc1cccc(NC(=O)c2cn(-c3ccccc3)nc2-c2ccccc2)c1C	15&-20	81	91	102&101
COc1ccc(-c2noc(-c3ccc(N4CCN(c5ccc(OC)cc5)CC4)c([N+](=O)[O-])c3)n2)cc1	-20	91	87	94
O=c1cc(CSc2nc3c(sc(=S)n3Cc3ccco3)c(=O)n2-c2ccccc2)c2ccc(O)cc2o1	-21	93	74	104
CCOC(=O)c1cccc(NC(=O)NCc2ccc3c(c2)CCN3C(=O)c2ccccc2)c1	.	111	99	102
CCOC(=O)c1c(NC(=O)c2csnn2)sc(C)c1C	7	.	.	99
C=CCOc1c(Br)cc(/C=C2\NC(=S)NC2=O)cc1OCC	-3	.	.	104
CCc1ccc(-c2cc3c(=O)n(CC(=O)NC(C)CCc4ccccc4)nc(C)n3n2)cc1 (stereo not given)	.	106	92	104
O=C(/C=C/c1ccccc1)NC1CCCc2ccccc21 (stereo not given)	-15	101	91	.
O=C(CCc1n[nH]c(=S)[nH]c1=O)NCCc1ccc(Cl)cc1Cl	-8	84	92	.
COC(=O)c1cc2sccc2n1CC(=O)c1ccccc1	.	98	102	104
COc1cccc(C2=NN(C(=O)c3ccccc3)C(O)(C(F)(F)F)C2)c1 (stereo not given)	-5	.	.	112
COc1ccc(N2CCN(CCCn3c(NN)nc4ccsc4c3=O)CC2)cc1	.	70	85	118
COc1ccc(CNC(=O)CCc2c(C)c3cc4c(C)coc4cc3oc2=O)cc1	-10	102	81	103
Cc1cccc(NC(=O)Cn2cnc3c(sc4ccccc43)c2=O)c1	5	.	.	106
CC(=O)Oc1ccc(C(=O)N(C(=O)c2ccc(OC(C)=O)cc2)c2cc(C)ccn2)cc1	.	112	92	108
CCCN(CCC)c1nn2c(=O)c(C(=O)NCc3cc(Br)ccc3OC)cnc2s1	.	94	91	102
O=C(c1cc(C2CC2)on1)N1CCCC1c1ccc(Cl)cc1 (stereo not given)	1	.	.	110
COc1ccc(CC(C#N)C#N)cc1	-14	.	.	100
COc1cc(-c2nc(N3CCCCC3C)c3ccccc3n2)cc(OC)c1OC (stereo not given)	11	.	.	110
O=C(c1cc2ccccc2o1)N1CCCC1	6	107	93	105

A second format for 2 compounds above:
O=C(c1cc(C2CC2)on1)N1CCCC1c1ccc(Cl)cc1 (stereo not given)
- HCMV UL50-53 inh: 1
- Sa growth 42C: .
- Sa growth 42C second temp: .
- GIV Gai3 FP: 110

O=C(c1cc2ccccc2o1)N1CCCC1
- HCMV UL50-53 inh: 6
- Sa growth 42C: 107
- Sa growth 42C second temp: 93
- GIV Gai3 FP: 105

(next part)
SMILES	HCMV UL50-53 inh	Sa growth 42C	Sa growth 42C second temp	GIV Gai3 FP
CCC(C(=O)NCc1ccco1)n1nc(-c2ccc(OC)cc2)ccc1=O (stereo not given)	-15	92	80	97
CCc1ccccc1NC(=O)N1CC(CC)Oc2ccc(Cl)cc21 (stereo not given)	-6	78	84	104
CCCCNC1=NCCCS1	-18	94	88	.
Cc1ccc(N2CN=c3s/c(=C4\C(=O)N(C)c5ccccc54)c(=O)n3C2)cc1	-26	86	86	98
O=C(NCc1ccco1)NC1CCCN1S(=O)(=O)c1ccc(Cl)cc1 (stereo not given)	3	82	96	.
CCN1C(=O)CN(c2ccccc2)C1=S	106	101	79	106
COc1cc(Cl)c(C)cc1NC(=O)Cn1ncc2c3ccccc3n(Cc3ccccc3)c2c1=O	-20	109	85	106
CC(C)CCNC(=O)CCC(=O)NNc1nc2ccccc2c2nc(-c3ccccc3)nn12	16	96	94	100
CN(C)S(=O)(=O)c1ccc(C(=O)OCC(=O)Nc2ccccc2)cc1	-3	94	98	.
COC(=O)C(Cc1ccccc1)NS(=O)(=O)c1ccc(OC)cc1 (stereo not given)	-15	90	99	.
Nc1nonc1-n1nnc(C(=O)O)c1-c1ccccc1	.	84	87	99
CCOC(=O)c1cccc(NC(=O)N2CCSc3ccccc32)c1	-23	104	95	100
CC(C)(C)c1ccc(-c2cc(N)n[nH]2)cc1	5	91	39	102
Cc1ccc(C(=O)Nc2nnc(CCS(=O)(=O)c3ccc(Br)cc3)s2)cc1	-14	.	.	101
O=C1CN(S(=O)(=O)c2ccc3c(c2)Cc2ccccc2-3)CC(=O)N1	-6	111	90	102
Cc1nnc2sc(-c3ccc(NC(=S)NC(=O)c4cccs4)cc3)nn12	-8	105	94	107
CCOC(=O)c1ccc(NC(=O)c2cc3cc(C)ccc3n2C)cc1	-42	86	81	98
Cc1ccc(CSc2nc3ccncc3n2Cc2nc(-c3ccccc3C)oc2C)cc1	-30	96	81	105
COc1ccc(CC(=O)OCC(=O)NC2CCCCC2)cc1	-8	89	97	.
O=S(=O)(NCc1ccccc1)c1ccccc1F	-17	71	84	.
N#Cc1sc2nc(-c3ccccc3)cc(C(F)(F)F)c2c1N	-37	111	66	.
Nc1c(C(=O)Nc2ccccc2)c2nc3ccccc3nc2n1/N=C/c1ccco1	-5	98	91	108
CCn1c(SCC(=O)OC)nnc1-c1ccc(O)cc1	5	85	118	106
CCCn1c(CSc2ncccn2)nc2cc(S(=O)(=O)N3CCOCC3)ccc21	-6	89	77	.
CC(C)(C)C1=CC(=O)C(N2CCN(Cc3ccccc3)CC2)=CC1=O	-30	88	69	.
CN(C)S(=O)(=O)c1ccc(S(=O)(=O)N2CCN(CCC#N)CC2)cc1	-21	100	91	104
CC(C)C(=O)Nc1ccc(-c2nc3ccccc3c(=O)[nH]2)cc1	-34	115	98	104
N#Cc1ccc(COC(=O)CN2C(=O)CSc3ccccc32)cc1	-48	100	96	.
COc1ccc(NC(=O)Cn2c(-c3ccc(C)cc3)nc3ccccc3c2=O)c(OC)c1	-12	.	.	100
CCc1ccc(CNC(=O)CCC(=O)N2Cc3cccc(OC)c3Oc3ncccc32)cc1	.	81	61	96
CSc1ccc(CCNC(=O)c2c(C)nn(-c3ccc(F)cc3)c2-n2cccc2)cc1	.	128	75	105
CC(C)(C)C1CCC2(CC1)C(C#N)=C(SCC(=O)NC1CCCCC1)NC(=O)C2C#N (stereo not given)	-6	102	83	107
COc1ccc(COc2ccc(=O)n(-c3ccc(C(=O)Nc4cc(Cl)ccc4OC)cc3)n2)cc1	-8	.	.	107
CN1C(=O)c2cccc(NC(=O)c3ccccc3)c2C1=O	-27	107	77	102
CCc1nnc(/N=C/c2cc(-c3ccccc3)oc2O)s1	5	91	97	115
CCN(CC)c1cc(Nc2ccc(SC#N)cc2)c([N+](=O)[O-])c2nonc12	-4	.	.	107
CC(Nc1nn2nnnc2c2ccccc12)c1ccccc1 (stereo not given)	-22	109	86	101
O=C(Cn1cnnn1)Nc1cc(C(F)(F)F)ccc1NC1CCCCC1	-26	113	101	.
Cc1c(-c2nnc(SCC(=O)Nc3ccccc3F)o2)nnn1-c1ccc(F)cc1	.	89	84	209
Cc1nc(-c2ccc(S(=O)(=O)Nc3ccc(C)c(N(C)C)c3)cc2)co1	.	93	88	101

Another view of part of the listing above.
smiles | HCMV UL50-53 inh | Sa growth 42C | Sa growth 42C second temp | GIV Gai3 FP
CN1C(=O)c2cccc(NC(=O)c3ccccc3)c2C1=O | -27 | 107 | 77 | 102
CCc1nnc(/N=C/c2cc(-c3ccccc3)oc2O)s1 | 5 | 91 | 97 | 115
CCN(CC)c1cc(Nc2ccc(SC#N)cc2)c([N+](=O)[O-])c2nonc12 | -4 | . | . | 107
CC(Nc1nn2nnnc2c2ccccc12)c1ccccc1 (stereo not given) | -22 | 109 | 86 | 101

Remaining list, next part.
SMILES	HCMV UL50-53 inh	Sa growth 42C	Sa growth 42C second temp	GIV Gai3 FP
CCc1nnc(NC(=O)c2nc(SCc3ccccc3C)ncc2Cl)s1	18	87	61	110
O=C(C1CCCN(c2nc3cccnc3s2)C1)N1CCC(Cc2ccccc2)CC1 (stereo not given)	-17	.	.	112
CCn1c(=N)c(C(=O)OC)cc2c(=O)n3cc(C)ccc3nc21	-127	90	90	103
O=C(CN1CCCc2ccccc21)NC(=O)NC1CCCCC1	-13	99	93	.
CCc1ccc(NC(=O)c2cc3cc4ccc(C)cc4nc3o2)cc1	.	106	95	98
O=C(C1CC1)N1CCN(CN2C(=O)NC(Cc3ccccc3)(Cc3ccccc3)C2=O)CC1	-28	94	87	.
C=CCc1ccccc1OCc1nc2ccccc2n1CC	-18	80	76	104
CCCCc1c(O)c2cnn(-c3ccccc3)c2[nH]c1=O	-11	91	89	107
CC(C)NC(=O)CCc1nnc2ccc(N3CCCC3)nn12	-21	97	88	109
CCc1nc(-c2ccc(C(=O)NCC(=O)Nc3ccc(Cl)cc3)cc2)no1	-14	.	.	114
Cc1ccccc1CNC(=O)C1CCCCN1S(=O)(=O)c1ccc(F)cc1 (stereo not given)	.	101	88	103
COc1cccc(NC(=O)CN2N=C(c3ccccc3)c3ccccc3S2(=O)=O)c1	-17	.	.	101
CCS(=O)(=O)c1nnnn1-c1ccccc1S(C)(=O)=O	0	89	81	.
Cc1ccc(S(=O)(=O)CC(=O)Nc2sc3c(c2C#N)CCCCC3)cc1	.	106	98	97
Cc1ccc(-n2c(=O)c3c(c4cc(C)ccc4n3C)n(CC(=O)N3CCCC3)c2=O)cc1	.	127	100	101
CCOC(=O)c1cc2sccc2n1CC(=O)NC1CCC(C)CC1 (stereo not given)	1	87	90	106
Cc1cc(=O)n(C(C)C(=O)NCc2ccccc2Cl)c2c1c(C)nn2-c1ccccc1 (stereo not given)	.	87	101	110
O=C(c1ccc(COc2c(F)c(F)cc(F)c2F)o1)N1CCN(c2ccc(Cl)cc2)CC1	-10	94	88	109
CCCCn1c(NCc2cccs2)nc2ccccc21	3	79	68	107
CCn1c(C(=O)NCc2ccc(OC)cc2)cc2sc(Cl)cc21	-14	93	89	102
COc1ccc(C(=O)NC(=S)Nc2ccc(NC(=O)c3ccco3)cc2)cc1Cl	2	112	102	97
NN1CC(=O)N(c2ccc(Cl)cc2)CC1=O	3	96	88	110
CCC(C)NC(=O)Cn1ccc2cc(S(=O)(=O)N3CCCC3)ccc21 (stereo not given)	5	.	.	99
CCOC(=O)c1noc2ncn(Cc3c(C)cc(C)cc3C)c(=O)c12	-27	.	.	110
COC(=O)N/N=C/c1ccc(C(C)C)cc1	-47	102	94	.
COC(=O)c1sccc1NC(=O)c1cc(S(=O)(=O)C(C)C)c(SC)s1	-10	90	79	94
O=C(CCCCn1c(=O)[nH]c2ccsc2c1=O)NCc1cccnc1	10	94	95	103
CSc1n[nH]c(-c2cccc(Cl)c2)c1C#N	-23	16	8	101
O=C(Cn1c(=O)sc2ccccc21)NCc1ccccn1	.	101	91	98
COc1ccccc1NC(=O)C1CCC(CNS(=O)(=O)c2ccc3c(c2)CC(C)N3C(C)=O)CC1 (stereo not given)	-12	117	90	101&107
CCc1ccc(-n2nc(CO)c(C(=O)NC)n2)cc1	-21	103	88	102
COC(=O)C(Cc1csc2ccc(Cl)cc12)NC(=O)c1ccccc1 (stereo not given)	-8	81	63	103
COc1cccc(NC(=O)Cn2c(=O)n(C(C)C)c(=O)c3oc4ccccc4c32)c1	-28	89	74	104
CCC(CC)C(=O)c1c(O)c2ccccc2oc1=O	7	79	76	100
Cc1cc(=O)c2nncn2[nH]1	-9	78	93	.
CCOC(=O)c1cnn(-c2nc(-c3ccccc3)cs2)c1C(F)(F)F	-2	107	77	99
CCCCC(CC)CNC(=O)c1ccc(N2CCCS2(=O)=O)cc1 (stereo not given)	-14	.	.	100
CC1(NC(=O)Cc2n[nH]c(=O)c3ccccc23)CCS(=O)(=O)C1 (stereo not given)	-40	109	86	.
CNC(=O)COC(=O)CN1C(=O)c2ccccc2C1=O	-53	115	98	.
COC(=O)c1ccc(-c2nc(-c3cccs3)no2)cc1	4	108	86	106
Cc1cccc(C(CC(=O)NCc2cccs2)n2cccc2)c1 (stereo not given)	-16	105	91	98
COC(=O)c1ccc(COC(=O)c2cc3c(s2)CCC(C)C3)o1 (stereo not given)	-11	88	97	.
CCC1CCCCN1C(=O)COC(=O)c1cccs1 (stereo not given)	4	103	94	.
Cc1ccccc1-n1c(O)c(C=NCC2CCCO2)c(=O)[nH]c1=S (stereo not given)	2	96	108	101
O=C(CN1C(=O)C2(SCC(=O)N2c2ccccc2)c2ccccc21)NCc1ccccc1Cl (stereo not given)	.	112	99	104
O=S(=O)(Cc1nc(COc2c(Cl)cccc2Cl)no1)c1ccc(Cl)cc1	12	105	98	102
O=C(CSc1nnc2sc3ccccc3n12)N1CCCC1c1ccc2c(c1)OCCO2 (stereo not given)	-16	90	103	.
COC(=O)c1c(C)[nH]c(C)c1/C=N/OC(=O)c1cccs1	-34	86	89	107
CC(C)CNC(=O)c1cc2n(n1)C(C(F)(F)F)CC(c1ccco1)N2 (stereo not given)	.	92	87	99

An excerpt of these results, field by field.
compound: COC(=O)c1ccc(COC(=O)c2cc3c(s2)CCC(C)C3)o1 (stereo not given)
  HCMV UL50-53 inh: -11 | Sa growth 42C: 88 | Sa growth 42C second temp: 97 | GIV Gai3 FP: .
compound: CCC1CCCCN1C(=O)COC(=O)c1cccs1 (stereo not given)
  HCMV UL50-53 inh: 4 | Sa growth 42C: 103 | Sa growth 42C second temp: 94 | GIV Gai3 FP: .
compound: Cc1ccccc1-n1c(O)c(C=NCC2CCCO2)c(=O)[nH]c1=S (stereo not given)
  HCMV UL50-53 inh: 2 | Sa growth 42C: 96 | Sa growth 42C second temp: 108 | GIV Gai3 FP: 101
compound: O=C(CN1C(=O)C2(SCC(=O)N2c2ccccc2)c2ccccc21)NCc1ccccc1Cl (stereo not given)
  HCMV UL50-53 inh: . | Sa growth 42C: 112 | Sa growth 42C second temp: 99 | GIV Gai3 FP: 104

Screening results: PubChem BioAssay, ICCB-Longwood Screening Facility, Harvard Medical School
